Bioassay records: PubChem BioAssay, National Center for Advancing Translational Sciences (NCATS)
NS1 function inh – blocks influenza NS1 protein function; 270,000 compounds, 0.4% hits; AID 2326; S. cerevisiae slowed by influenza A NS1, growth recovery by OD600; Potency, µM (titrated, usually from 46.1 µM), for the others: at the top dose activity, positive = more growth; further: actives are rising curves; nearly all actives have a fitted effect of over 50% in size
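In this qHTS, NS1 from influenza A is expressed in budding yeast, where it slows growth. Cells are switched from glucose to 2% galactose medium (pH 6.0, -URA), treated with compound, and growth recovery is read at OD600.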
Cruzain noTriton – cruzain (T. cruzi) inhibition without detergent. P25779. purified cruzain, Z-FR-AMC fluorescence, no detergent. Potency, µM, inactives show max response, negative = inhibition, actives largely listed as inhibitors. 200,000 compounds, 2.3% hits. AID 1476; active means well fitted curve in the direction sought with a large enough effect; inconclusive means small, poorly fitted or top-dose-only effect, or another doubt; inactive means no such curve, though single readings can be large; an effect the other way counts as inactive or inconclusive;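 further: plate controls were enzyme without inhibitor for no effect and buffer without enzyme for full effect; nearly all actives have a fitted effect of over 40% in size; top concentration of the series not given in the record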
Target sequence (P25779 123-467 limits assumed): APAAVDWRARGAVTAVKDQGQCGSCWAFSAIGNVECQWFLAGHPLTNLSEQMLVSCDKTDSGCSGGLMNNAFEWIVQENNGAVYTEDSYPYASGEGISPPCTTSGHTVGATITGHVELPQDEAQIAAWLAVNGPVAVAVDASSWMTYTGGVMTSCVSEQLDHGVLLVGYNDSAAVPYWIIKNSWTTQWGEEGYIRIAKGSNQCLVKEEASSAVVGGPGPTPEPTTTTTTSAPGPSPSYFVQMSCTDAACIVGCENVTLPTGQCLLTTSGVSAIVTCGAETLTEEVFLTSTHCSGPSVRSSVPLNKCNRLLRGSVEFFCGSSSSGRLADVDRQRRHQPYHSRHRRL
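Detergent-free condition (0.00005% Triton X-100) in acetate buffer pH 5.5 with DTT. 1.5 nM enzyme and compound were pre-mixed 15 min, then 2 uM Z-FR-AMC substrate added; reaction progress from fluorescence change between first and third reads (60 s).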
SARS PLpro yeast – inhibitors of SARS-CoV papain-like protease in yeast | AID 485353 | Potency, µM (top dose mostly 32.9 µM), for inactives: top-dose activity, positive = growth rescue | 330,000 compounds, 0.19% hits | S. cerevisiae expressing SARS-CoV PLpro, growth rescue; control for the full effect not named in the record; further: 0% is about no effect; nearly all actives have a fitted effect of over 55% in size; growth read by luminescence after 48 h
Marburg entry inh – blocks Marburg virus binding to or entry into cells | Marburg virus pseudotyped entry inhibition, cell reporter; control for the full effect not named in the record; about a third of the inactives were read at about 46 µM | Potency, µM (top dose mostly 37.8 µM), without a hit: at the top dose activity change, negative = inhibition, actives largely listed as inhibitors | AID 540276 | 300,000 compounds, 1.8% hits; active = well fitted inhibition curve with a large enough effect; inconclusive = small, poorly fitted or top-dose-only effect, or effect the other way; inactive = flat fitted curve, though single readings scatter; tested in HEK293 cells; about a fifth of its hits are not listed in these tables; further: on the % scale 0 is the no-effect control and ±100 the full control effect; luciferase read-out
2A StopGo – lowers the luciferase signal of an FMDV 2A StopGo reporter; human cells with a luciferase reporter of 2A StopGo recoding; control for the full effect not named in the record; Potency, µM (highest dose often 57.9 µM), for inactives: at the top dose signal change, negative = less light; 410,000 compounds, 1.2% hits; AID 1159524; active = well fitted falling curve with a large enough effect; inconclusive = small, poorly fitted or top-dose-only effect; inactive = no such curve, though single readings can be large or run the other way; tested in HEK293T cells; further: on the % scale 0 is the no-effect control and ±100 the full control effect; nearly all actives have a fitted effect of over 45% in size; luciferase light after 4 h
RE007 growth inh – less growth of the S. pombe RE007 Vpr strain; 360,000 compounds, 0.21% hits; S. pombe RE007 Vpr strain, BacTiter-Glo ATP luminescence, 24 h; control for the full effect not named in the record; Potency, µM (doses to about 92.2 µM), inactives show top-dose activity change, negative = less growth; active = well fitted falling curve with a large enough effect; inconclusive = small, poorly fitted or top-dose-only effect; inactive = no such curve, though single readings can be large or run the other way;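 further: on the % scale 0 is the no-effect control and ±100 the full control effect; nearly all actives have a fitted effect of over 50% in size; the assay follows cell death caused by Vpr and the record does not say whether a fall means rescue or toxicity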
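Fission yeast strain RE007, carrying one chromosomally integrated HIV-1 vpr copy, was seeded at OD 0.01 in PMG+AL medium with 23 nL pinned compound. After 24 h at 30 °C and 99% humidity, viability was read by BacTiter-Glo luminescence.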
LASV entry inh – inhibitors of Lassa virus binding or cell entry; Lassa virus pseudotype entry inhibition, cell reporter; control for the full effect not named in the record; Potency, µM (top dose mostly 37.9 µM), inactives show at the top dose activity change, negative = inhibition, actives largely listed as inhibitors; 300,000 compounds, 1.2% hits; AID 540256; active means well fitted inhibition curve with a large enough effect; inconclusive means small, poorly fitted or top-dose-only effect, or effect the other way; inactive means flat fitted curve, though single readings scatter; tested in HEK293 cells; further: on the % scale 0 is the no-effect control and ±100 the full control effect; nearly all actives have a fitted effect of over 50% in size; luciferase read-out
Cruzain inh Det – inhibitors of Trypanosoma cruzi cruzain with detergent. purified cruzain, Z-FR-AMC fluorescence, 0.01% Triton. AID 1478. Potency, µM, inactives show max response, negative = inhibition, hits mostly inhibitors. 200,000 compounds, 0.43% hits; active means well fitted curve in the direction sought with a large enough effect; inconclusive means small, poorly fitted or top-dose-only effect, or another doubt; inactive means no such curve, though single readings can be large; an effect the other way counts as inactive or inconclusive;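 further: plate controls were neutral wells for no effect and buffer without enzyme for full effect; nearly all actives have a fitted effect of over 40% in size; top concentration of the series not given in the record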
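Detergent-containing run (0.01% Triton X-100) in acetate buffer pH 5.5 with 5 mM DTT: enzyme at 1.5 nM final, 15 min compound preincubation at room temperature, then 2 uM Z-FR-AMC substrate. Activity taken as 60 s fluorescence increase at 360/450 nm.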
An asterisk follows results filed as active; ? = inconclusive; . = not tested or not shown; & = joins results of further samples; [ ] = remark or other dose. Unless noted, the call rests on the fitted dose curve; in most records, active means well fitted rising curve with a large enough effect; inconclusive means small, poorly fitted or top-dose-only effect; inactive means no such curve, though single readings can be large or run the other way. Potency means the concentration at half of the fitted maximal effect.

SMILES	NS1 function inh	Cruzain noTriton	SARS PLpro yeast	Marburg entry inh	2A StopGo	RE007 growth inh	LASV entry inh	Cruzain inh Det
CCN(CC)CCC(c1ccc(N(C)C)cc1)c1c(OC)cc(OC)c2c(-c3ccccc3)cc(=O)oc12 (configuration not stated)	-21%	.	-1%	.	9%	14%	.	.
COc1ccc(OC)c(NC(=O)c2cccnc2Sc2cc(C)ccc2C)c1	-11%	-7%	?	-9%	?	27%	?	-7.3%
CSc1ccc(CN2CCCC(CNC(=O)c3ccc(F)cc3)C2)cc1 (configuration not stated)	0%	.	1%	?	-17%	-15%	-20%	.
CSc1cccc(NC(=O)CN(c2cc(C)ccc2C)S(C)(=O)=O)c1	-1%	3%	-3%	-12%	-9%	18%	-12%	-3.5%
Cc1cccc(-n2c(Cc3cc(=O)[nH]c(=O)[nH]3)nnc2SCC(=O)NCC2CCCO2)c1 (configuration not stated)	0%	-3%	0%	.	-10%	14%	.	2.6%
CCOc1ccccc1NC(=O)CSc1nnc2c(CC)c(C)nc(N)n12	3%	6%	-5%	0%	-9%	12%	6%	2.8%
Clc1nc(-c2ccccc2)c2ccccc2n1	8%	.	7%	-3%[46.1 µM]	-13%	-9%	2%[46.1 µM]	.
CCCc1ccc2oc(C(=O)N(C)Cc3cnccn3)c(C)c2c1	12%	.	4%	.	38%[activator]	5%	.	.
Cc1cc(C)c(C2=CSC3=NS(=O)(=O)CCN23)c(C)c1	.	.	1%	-7%[46.1 µM]	-18%	10%	-24%	.
Cc1ccc(S(=O)(=O)NN2C(=O)c3ccccc3NC2c2ccccn2)cc1 (configuration not stated)	.	.	1%	7.9µM*	-16%	1%	?	.
CCS(=O)(=O)c1ccc2oc(Nc3ccccc3C)nc2c1	-6%	8%	-14%	-2%	54%[activator]	?	?	0.7%
Cc1c(C)c2c(cc(C)c3c(-c4ccccc4)coc32)oc1=O	.	-23%	.	7%[46.1 µM]	1%	.	0%[46.1 µM]	-0.2%
COC(=O)[C@H](Cc1ccccc1)NC(=O)[C@@]1(C)C[C@@H]1[C@@H](NC(=O)OCc1ccccc1)c1ccccc1	-9%	-9%&4%	-21%	1%	-26%	17%	-29%	-2.0%&-4.8%
COc1cc(OC)c(OC)cc1CNCCSc1nnnn1C	-59%	.	0%	5%[46.1 µM]	0%	-2%	.	.
O=C(NCCc1ccc(O)c(O)c1)C1COc2ccccc2O1 (configuration not stated)	-3%	.	-3%	-21%[46.1 µM]	11%	-4%	0%[46.1 µM]	.
CCc1nc(SCc2ccc(F)cc2)[nH]c(=O)c1C#N	5%	7%	5%	?	1%	6%	0%	-8.3%
O=C(COC(=O)c1ccc2c(c1)OCO2)NCc1ccc(Cl)cc1	-13%	-4%	-2%	11%[46.1 µM]	-22%	-2%	-1%	-0.4%
Cc1cc(NC(=O)CCC(=O)N(Cc2ccco2)C2(C(=O)NC3CCCCC3)CCN(C)CC2)no1	-3%	-2%	2%	1%&18%	5%	-1%	20%	4.2%
O=C(NNC(=O)C12CC3CC(CC(C3)C1)C2)[C@@H]1C[C@H]1c1ccccc1	.	.	0%	-3%[46.1 µM]	38%[activator]	3%	?	.
COc1cc([C@H]2c3[nH]c4ccccc4c3C[C@H]3C(=O)N4[C@@H](c5cc(OC)c(OC)c(OC)c5)c5[nH]c6ccccc6c5C[C@H]4C(=O)N23)cc(OC)c1OC	9%	5%	5%	?	?	-13%	?	1.9%
Cc1cccn2c(=O)c3cc(C#N)c(=N)n(Cc4cccnc4)c3nc12	5%	.	.	12%	4%	-22%	-3%	.
COc1ccc(CNS(=O)(=O)c2ccc(C(=O)N(C)C)s2)cc1	.	4%	.	.	-10%	.	19%[46.1 µM]	0.5%
Cc1nn(CC(=O)NC2CCCCC2)c(=O)c2cc3cc(F)ccc3n12	.	2%	.	-10%[46.1 µM]	-4%	.	.	1.0%
O=C(CSc1n[nH]c(=O)n1-c1ccccc1)Nc1ccccc1C(F)(F)F	9%	.	0%	.	-7%	-1%	.	.
COc1cccc(CC2(CO)CCN(CC3=CC[C@H]4C[C@@H]3C4(C)C)CC2)c1	3%	.	0%	?	-10%	-8%	-13%[46.1 µM]	.

More compounds
SMILES	NS1 function inh	Cruzain noTriton	SARS PLpro yeast	Marburg entry inh	2A StopGo	RE007 growth inh	LASV entry inh	Cruzain inh Det
COC(=O)c1ccc2nc(C)c(C)nc2c1	1%	-6%	1%	4%	21%	0%[3.69 µM]	14%	1.6%
CC(=O)n1nc(-c2ccco2)nc1N	15%	-4%	1%	?	4%	4%	19%	2.7%
CCn1c2ccccc2c2nnc(SCC(=O)N3CC(C)OC(C)C3)nc21 (configuration not stated)	-5%	-27%	8%	-28%	.	4%	-16%	-4.9%
CC(=O)c1ccc(NC(=O)CCNC(=O)c2ccccc2Cl)cc1	-13%	.	-2%	-9%[46.1 µM]	25%	-15%	15%	.
Cc1c(Cl)cccc1N(CC(=O)NC1CCCCC1)S(C)(=O)=O	1%	7%	1%	-2%	8%	10%	-3%	-1.0%
O=C(O/N=C1/CCSc2ccccc21)c1ccccc1	-56%	-15%	-18%	-9%	13%	?	-6%	-1.6%
Cc1ccc(CN2CCN(Cc3cccn3-c3ccc(Cl)cn3)CC2CCO)o1 (configuration not stated)	-3%	.	4%	-22%[46.1 µM]	-7%	-8%	-8%[46.1 µM]	.
O=C(NCCO)/C(=C/c1cccc([N+](=O)[O-])c1)NC(=O)c1ccco1	.	.	2%	21%[46.1 µM]	-11%	11%	3%	.
O=C(Nc1ccc2nc(SCC(=O)N3CCCC3)sc2c1)c1ccc(Br)cc1	.	3%	.	20%[46.1 µM]	-14%	.	13%[46.1 µM]	-1.3%
Cc1c(Cl)cccc1NC(=S)NCc1ccc(Cl)cc1	.	.	.	?	1%	2%	-10%	.
CCCCC(=O)NN(C)c1nc(-c2ccccc2)nnc1C(F)(F)F	4%	-6%	12%	?	-12%	11%	-19%	3.4%
CCOc1ccc(-c2ccc(SCC(=O)Nc3nnc(CC)s3)nn2)cc1	.	.	1%	?	24%	4%	.	.
COC(=O)C1=[N+]([O-])OC(C(=O)OC)C1c1c[nH]c2ccccc12 (configuration not stated)	2%	-8%	-1%	-6%	.	9%	0%	4.7%
COc1ccccc1C(=O)Nc1ccnn1C1CCN(Cc2ncc[nH]2)CC1	-10%	.	-3%	.	30%	5%	.	.
CCOC(=O)CN1C(=O)/C(=C/c2ccc(Cl)cc2)Oc2ccccc21	1%	.	-1%	-6%[46.1 µM]	-5%	-11%	-2%[46.1 µM]	.
O=C(CNS(=O)(=O)c1cccs1)N1CCN(c2ccccn2)CC1	7%	-5%	4%	11%	-8%	6%	14%	3.6%
CSc1sc(C(=O)N2CCCCC2)c(-c2cccs2)c1C#N	-7%	.	0%	18%[14.2 µM]	-12%	4%	-12%	.
CN(CCCNC(=O)Cn1c(=O)c2cccn2c2ccccc21)Cc1ccccc1	4%	.	1%	.	0%	-7%	.	.
COc1ccc(OC)c(Nc2nc(NCc3ccco3)nc(N)c2[N+](=O)[O-])c1	-3%	.	2%	5%[46.1 µM]	-12%	2%	-1%	.
CC(=O)c1c(C)[nH]c(C(=O)OCC(=O)Nc2cc(C)on2)c1C	4%	6%	1%	-15%	-25%	14%	2%	3.6%
Cc1ccccc1C(=O)Nc1nnc(S(=O)(=O)N(C)Cc2ccccc2)s1	.	5%	.	.	29%	.	?	-0.4%
COc1ccc(CNC(=O)CCNS(=O)(=O)c2cc(Br)cnc2N)cc1	-6%	.	3%	.	19%	-14%	.	.
COc1ccccc1N(CC1CO1)S(=O)(=O)c1ccc(C)cc1 (configuration not stated)	-19%	.	2%	-12%[46.1 µM]	13%	1%	-12%	.
COc1ccc(Br)cc1S(=O)(=O)N1CCCC1	-3%	-6%	7%	3%	-16%	-24%	13%	-1.8%
Cc1ccc(NC(=O)N2CCCc3ccccc32)cc1C	-27%	.	0%	?	10%	-20%	-26%[46.1 µM]	.

Going on with the list.
SMILES	NS1 function inh	Cruzain noTriton	SARS PLpro yeast	Marburg entry inh	2A StopGo	RE007 growth inh	LASV entry inh	Cruzain inh Det
CC(C)CCNC(=O)c1cc2c(s1)-c1ccccc1S(=O)(=O)C2	9%	.	0%	-17%[46.1 µM]	7%	?	?	.
COc1ccc(N2C(=O)/C(=C/c3cc(C)n(-c4ccc(C)cn4)c3C)C(=O)NC2=S)c(OC)c1	8%	.	0%	.	32µM*	12%	.	.
O=C(C1CCCO1)N1CCN(c2ccccn2)CC1 (configuration not stated)	3%	.	2%	-18%[46.1 µM]	-10%	-3%	21%[46.1 µM]	.
CCOC(=O)C1=C(N)OC2=C(C(=O)CC(C)(C)C2)C1c1cccnc1 (configuration not stated)	-9%	-1%	-1%	8%	6%	0%	-12%	0.8%
Cn1nnnc1SC(C(=O)Nc1ccc(F)cc1)c1ccccc1 (configuration not stated)	.	.	-2%	-19%[46.1 µM]	-11%	7%	20%	.
Cn1c(=O)c(-c2ccccc2N)nc2ccccc21	8%	2%	-6%	-27%	38%	8%	10%	-0.7%
O=C(c1ccccc1)N1CCN(c2ccc(Cl)cc2)CC1	-106%	27%	4%	0%	.	-22%	1%	-1.9%
CCNc1ccc(S(N)(=O)=O)cc1[N+](=O)[O-]	21%	-16%	14%	7%	-5%	-5%	2%	-1.6%
O=C(c1cc(S(=O)(=O)N2CCCC2)c(Cl)cc1Cl)N1CCCC1	-5%	.	1%	4%[46.1 µM]	0%	-23%	1%[46.1 µM]	.
O=C(N/N=C/c1ccc(OC(=O)c2ccco2)cc1)c1ccncc1	9%	.	-7%	6%[46.1 µM]	-1%	1%	-5%[46.1 µM]	.
CCOc1ccc(CCNC(=O)Cn2nc(C)c3c(C)n(-c4ccccc4)nc3c2=O)cc1OCC	1%	-2%	-1%	.	?	-27%	4%[46.1 µM]	-2.4%
CCC(C)C(NC(=O)OC(C)(C)C)C(=O)NC(C)C(N)=O (configuration not stated)	4%	.	0%	.	-9%	-6%	.	.
CC1C/C(=C\c2cccnc2)C(=O)/C(=C/c2cccnc2)C1 (configuration not stated)	-50%	0%	-82%	2.1µM*	3.5µM*	?	2.9µM*	-2.7%
